RN4220 kill: kills Staphylococcus aureus RN4220. S. aureus RN4220 growth, OD600, 16 h. inhibition, % (concentration not given with the values). 330,000 tested, 0.33% active;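 active = z-score of -3 or lower and OD600 up to 0.18 on both plates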;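 also: plate controls were untreated cells for no effect and reference antibiotic for full effect; stock transfer was 100 nL into about 80 µL; one replicate is shown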
PrP UTR inh: inhibition of PrP 5' UTR reporter expression; AID 488862; cell-based PrP 5' UTR mRNA reporter, plate reader; inhibition, % (test concentration not listed); 340,000 tested, 0.35% active;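 active = every replicate at 50% or more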;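 also: 0 = median of the neutral control wells; tested in H4 reporter cells; numbers are from one replicate; inactives centre near -14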
Mtb hypoxia rep: Mtb hypoxia fluorescent reporter inhibition | AID 1159583 | 300,000 tested, 0.1% active | fluorescence inhibition, % (no concentration beside the values) | M. tuberculosis hypoxia-regulated fluorescent reporter, fluorescence;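 active = 35 to 45% if threefold the growth effect, above 45% if 1.5-fold the growth effect; inactive = the rest, general growth blockers included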;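 also: wells of about 50 µL received 100 nL stock; 0% = vehicle wells and 100% = reference inhibitor wells; whole bacteria with a GFP reporter of the hypoxia response; strong numbers were not always called active; many hits fall short of the cut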
Bead autofluor: counter-screen for toxin protease inhibitors: compound fluorescence; compound autofluorescence counterscreen, microsphere flow cytometry; hits give high values; fluorescence intensity (no concentration beside the values); 360,000 tested, 3.1% active; AID 624483;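 active = at least 3 SD above the mean of all compounds, about 16000 in these data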;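 also: 100 nL of 1 mM stock went into each well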
BJeLR viability: BJeLR cell viability loss | inhibition, % (concentration not given with the values) | BJeLR (HRASV12) viability, CellTiter-Glo ATP luminescence, 48 h; reference of the scale not given here | 300,000 tested, 0.17% active;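 active = replicate mean above 50%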;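 also: 50 nL library stock added to about 25 µL; numbers are from one replicate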
ugtP null kill: compounds lethal to S. aureus RN4220 ugtP deletion mutant | OD600 growth, 16 h; some inactives read as strong as hits | growth inhibition, % (no concentration beside the values) | 330,000 tested, 0.54% active | AID 1259309;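 active = z-score under -3 and OD600 up to 0.15 on both plates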;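 also: plate controls were untreated wells for no effect and antibiotic for full effect; wells of about 80 µL received 100 nL stock; the first replicate is given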
Mtb hypoxia rep growth: further read-out of Mtb hypoxia rep, marked with its call; growth inhibition, %; measured here: M. tuberculosis growth (absorbance);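 0% = vehicle and 100% = reference antibiotic; read after six days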
Starred values were filed as active, the others as inactive.

How did N#C/C(=C\c1cc([N+](=O)[O-])c(N2CCCCC2)cc1N1CCCCC1)c1nn(-c2ccccc2)c(N)c1C#N do in these assays?
RN4220 kill: -6.8; PrP UTR inh: -29.7; Bead autofluor: 4377; BJeLR viability: 3.8; ugtP null kill: -6.4

Results for COc1ccccc1C1CC(c2ccco2)=NN1c1ccccc1 (centres undefined) ?
RN4220 kill: -14.1; PrP UTR inh: -25.4; Mtb hypoxia rep: -3.8; Bead autofluor: 2409; BJeLR viability: -40.3; ugtP null kill: 39.3; Mtb hypoxia rep growth: -2.1

How did CCC(C)(C)NC(=S)Nc1ccccc1C do in these assays?
RN4220 kill: 4.9; PrP UTR inh: -7.2; Mtb hypoxia rep: 12.3; Bead autofluor: 4521; BJeLR viability: -16.0; ugtP null kill: 2.1; Mtb hypoxia rep growth: 1.5

What do the screens show for `O=S(=O)(c1ccc(Oc2ncnc3scc(-c4ccccc4)c23)cc1)N1CCOCC1`?
RN4220 kill: -3.2; PrP UTR inh: -15.8; Bead autofluor: 2681; BJeLR viability: -3.1; ugtP null kill: -1.9

How did CCCNC(=O)N1C2CCC1C(C(=O)OC)=C(c1ccc(C(C)=O)cc1)C2 (centres undefined) do in these assays?
RN4220 kill: 2.9; Mtb hypoxia rep: 7.6; ugtP null kill: 6.8; Mtb hypoxia rep growth: 8.1

Results for COc1cc(C=NNC(=O)C(=O)NCC2CCCO2)ccc1O (centres undefined) ?
RN4220 kill: 3.5; Mtb hypoxia rep: 9.4; ugtP null kill: 3.9; Mtb hypoxia rep growth: 4.7

How did COc1ccc2nc(N/C(N)=N/C(=S)Nc3c(C)cccc3C)nc(C)c2c1 do in these assays?
RN4220 kill: -3.5; PrP UTR inh: -21.1; Mtb hypoxia rep: -5.5; Bead autofluor: 5132; BJeLR viability: 6.2; ugtP null kill: -2.4; Mtb hypoxia rep growth: 2.4

Results for CCOC(=O)CCCNC(=O)COC(=O)[C@@H]1CCCN1S(=O)(=O)c1ccc(Cl)cc1 ?
RN4220 kill: 0.3; PrP UTR inh: -21.5; Mtb hypoxia rep: -4.0; Bead autofluor: 2056; BJeLR viability: -18.3; ugtP null kill: -1.6; Mtb hypoxia rep growth: -13.3

What do the screens show for `COC(=O)C(O)(c1c(C)[nH]c2ccccc12)C(F)(F)F` (centres undefined)?
RN4220 kill: 2.3; PrP UTR inh: 4.8; Mtb hypoxia rep: 6.0; Bead autofluor: 3372; ugtP null kill: -7.8; Mtb hypoxia rep growth: 1.9

Results for NC(=NOC(=O)CCCc1ccccc1)c1ccc([N+](=O)[O-])cc1 ?
RN4220 kill: 2.2; Mtb hypoxia rep: -4.1; ugtP null kill: 6.1; Mtb hypoxia rep growth: 1.0

What do the screens show for `CC(NC(=O)C1CCN(S(=O)(=O)c2cccc3cccnc23)CC1)c1ccccc1` (centres undefined)?
RN4220 kill: -3.0; PrP UTR inh: -1.1; Mtb hypoxia rep: -7.8; Bead autofluor: 6052; BJeLR viability: 1.3; ugtP null kill: -0.1; Mtb hypoxia rep growth: 3.8

What do the screens show for `O=[N+]([O-])c1ccc2nc(SCc3ccccc3Cl)sc2c1`?
RN4220 kill: 3.2; PrP UTR inh: -20.4; Mtb hypoxia rep: 8.2; Bead autofluor: 11175; BJeLR viability: 2.5; ugtP null kill: -53.8; Mtb hypoxia rep growth: 9.7

Results for COc1ccc2nc(Nc3ccc4c(c3)OCO4)sc2c1 ?
RN4220 kill: 7.8; PrP UTR inh: -119.4; Mtb hypoxia rep: 11.7; Bead autofluor: 4029; BJeLR viability: 1.1; ugtP null kill: -7.5; Mtb hypoxia rep growth: 8.6

Results for N#Cc1ccc(OCC(=O)Nc2cc(S(=O)(=O)N3CCCCC3)ccc2N2CCCCC2)cc1 ?
RN4220 kill: 7.5; PrP UTR inh: -15.5; Mtb hypoxia rep: 4.9; Bead autofluor: 2267; BJeLR viability: 15.5; ugtP null kill: -1.7; Mtb hypoxia rep growth: 2.9

How did COc1ccc(NC(=O)/C=C/c2ccc3c(c2)OCO3)cc1 do in these assays?
RN4220 kill: 1.4; PrP UTR inh: -7.0; Mtb hypoxia rep: 10.8; Bead autofluor: 2646; BJeLR viability: -5.7; ugtP null kill: 9.4; Mtb hypoxia rep growth: 0.9

How did CSc1cccc(NC(=O)C2CC(=O)N(Cc3ccccc3)C2)c1 (centres undefined) do in these assays?
RN4220 kill: -0.2; PrP UTR inh: -14.9; Mtb hypoxia rep: -1.3; Bead autofluor: 5258; BJeLR viability: -3.5; ugtP null kill: -1.5; Mtb hypoxia rep growth: 7.3

Results for O=C(COC(=O)CC1CCCC1)Nc1ccccc1[N+](=O)[O-] ?
RN4220 kill: 1.4; PrP UTR inh: -11.7; Mtb hypoxia rep: -1.5; Bead autofluor: 3939; ugtP null kill: -2.2; Mtb hypoxia rep growth: 12.7

Results for O=C(Nc1ccc(Oc2ccccc2)nc1)C1CCCCN1Cc1ccc(OCCO)cc1 (centres undefined) ?
RN4220 kill: 4.5; PrP UTR inh: -23.7; Mtb hypoxia rep: 13.8; Bead autofluor: 4518; BJeLR viability: -1.6; ugtP null kill: 12.5; Mtb hypoxia rep growth: 1.4

How did Fc1ccc(-c2csc3ncnc(N4CCN(Cc5ccccc5)CC4)c23)cc1 do in these assays?
RN4220 kill: 13.9; PrP UTR inh: -5.5; Mtb hypoxia rep: 0.2; Bead autofluor: 5587; BJeLR viability: -4.5; ugtP null kill: 2.9; Mtb hypoxia rep growth: 1.0

Results for COc1cccc(C(=O)N/N=C/c2cn[nH]c2-c2ccc(OC)cc2OC)c1 ?
PrP UTR inh: -9.6; Bead autofluor: 2087; BJeLR viability: 1.0

Structures listed so far that contain an aryl thioether with sulfur outside any ring:
What do the screens show for `O=[N+]([O-])c1ccc2nc(SCc3ccccc3Cl)sc2c1`?
RN4220 kill: 3.2; PrP UTR inh: -20.4; Mtb hypoxia rep: 8.2; Bead autofluor: 11175; BJeLR viability: 2.5; ugtP null kill: -53.8; Mtb hypoxia rep growth: 9.7

How did CSc1cccc(NC(=O)C2CC(=O)N(Cc3ccccc3)C2)c1 (centres undefined) do in these assays?
RN4220 kill: -0.2; PrP UTR inh: -14.9; Mtb hypoxia rep: -1.3; Bead autofluor: 5258; BJeLR viability: -3.5; ugtP null kill: -1.5; Mtb hypoxia rep growth: 7.3

The results go on.
Results for O=C(Cc1ccccc1[N+](=O)[O-])Nc1ccccc1C(=O)N1CCCC1 ?
RN4220 kill: -0.3; PrP UTR inh: -3.3; Mtb hypoxia rep: 2.6; Bead autofluor: 4429; BJeLR viability: -2.3; ugtP null kill: 6.0; Mtb hypoxia rep growth: 1.0

What do the screens show for `CCCOc1ccc(OCCOCCNCc2ccccc2)cc1`?
RN4220 kill: 1.7; PrP UTR inh: -26.4; Mtb hypoxia rep: 13.8; Bead autofluor: 2760; BJeLR viability: 16.0; ugtP null kill: 3.8; Mtb hypoxia rep growth: 7.1

Results for COc1ccnc2c1c(=O)n(Cc1ccc(Cl)cc1Cl)c(=O)n2C ?
RN4220 kill: -2.7; PrP UTR inh: 0.5; Mtb hypoxia rep: 3.9; Bead autofluor: 6143; BJeLR viability: 10.2; ugtP null kill: 1.8; Mtb hypoxia rep growth: 6.6

How did CN(C)c1ccc(/C=N/NC(=O)c2cc(-c3ccc4c(c3)OCO4)n[nH]2)cc1 do in these assays?
PrP UTR inh: -26.6; Bead autofluor: 5839; BJeLR viability: 25.6

What do the screens show for `CCOc1ccccc1NC(=O)CSc1ncnc2c1oc1ccccc12`?
RN4220 kill: -3.4; PrP UTR inh: 4.2; Mtb hypoxia rep: 0.9; Bead autofluor: 8330; BJeLR viability: -8.3; ugtP null kill: -23.3; Mtb hypoxia rep growth: 2.3

How did CC1CCC(NC(=O)CN(C)S(=O)(=O)c2ccc3c(c2)CCC(=O)N3)CC1 (centres undefined) do in these assays?
RN4220 kill: 6.2; PrP UTR inh: -4.3; Mtb hypoxia rep: -0.1; Bead autofluor: 4349; BJeLR viability: -6.8; ugtP null kill: 6.8; Mtb hypoxia rep growth: 4.3

Results for CCN(CC)C(=O)C1CCN(C(=O)c2oc3ccc(C)cc3c2C)CC1 ?
RN4220 kill: -5.2; PrP UTR inh: -11.5; Mtb hypoxia rep: 8.5; Bead autofluor: 4270; BJeLR viability: 0.2; ugtP null kill: 6.2; Mtb hypoxia rep growth: 10.8

What do the screens show for `CCOc1c(C(N)=O)cc([N+](=O)[O-])cc1[N+](=O)[O-]`?
RN4220 kill: 9.3; PrP UTR inh: -26.2; Mtb hypoxia rep: 9.4; Bead autofluor: 1998; BJeLR viability: -2.9; ugtP null kill: 8.9; Mtb hypoxia rep growth: 9.5

How did Cc1ccccc1NS(=O)(=O)c1cc(S(C)(=O)=O)ccc1Cl do in these assays?
RN4220 kill: 8.9; PrP UTR inh: -19.6; Mtb hypoxia rep: 10.1; Bead autofluor: 10253; BJeLR viability: 6.1; ugtP null kill: 4.7; Mtb hypoxia rep growth: 7.0

How did Cc1ccc(NC(=O)CSC(C)C(=O)OC(C)C(=O)NC2CCCCC2C)cc1 (centres undefined) do in these assays?
RN4220 kill: 0.6; PrP UTR inh: 4.7; Mtb hypoxia rep: 2.8; Bead autofluor: 4078; ugtP null kill: -6.3; Mtb hypoxia rep growth: -3.6

What do the screens show for `O=c1c(=Cc2ccc(O)cc2)sc2n1C(c1ccccc1)C(c1ccccc1)=NN=2` (centres undefined)?
RN4220 kill: -25.9; Mtb hypoxia rep: -1.0; ugtP null kill: 13.5; Mtb hypoxia rep growth: 2.4

How did C=CCOC(=O)C(=O)/C=C/c1ccc2c(c1)Cc1ccccc1-2 do in these assays?
PrP UTR inh: -23.2; Bead autofluor: 3820; BJeLR viability: 0.6

Results for CSc1ccccc1NC(=O)CN(C)Cc1ccc(Br)cc1 ?
RN4220 kill: 4.9; PrP UTR inh: -1.5; Mtb hypoxia rep: 8.9; Bead autofluor: 2506; BJeLR viability: 4.6; ugtP null kill: -1.8; Mtb hypoxia rep growth: 14.3

Results for CC(C)c1ccc(OCC(=O)N2CCN(C)CC2)c(Br)c1 ?
RN4220 kill: 3.6; PrP UTR inh: -14.4; Mtb hypoxia rep: 8.0; Bead autofluor: 6697; BJeLR viability: -4.6; ugtP null kill: -7.9; Mtb hypoxia rep growth: 0.3

Results for CCC1=C(OC(=O)N(CC)CC)N2C(=O)OC(=NCCc3c[nH]c4ccccc34)[C@]2(Cc2ccccc2)[C@H]2C1=CC[C@H]1C(=O)NC(=O)[C@H]12 ?
PrP UTR inh: -12.6; Bead autofluor: 3882; BJeLR viability: -3.7

Results for COc1ccc(OCC(=O)N2CCN(Cc3c[nH]c4ccccc34)CC2)cc1 ?
RN4220 kill: -15.3; PrP UTR inh: -8.2; Mtb hypoxia rep: 1.2; Bead autofluor: 3174; BJeLR viability: 12.8; ugtP null kill: -1.1; Mtb hypoxia rep growth: 3.3

How did CC1CCCCC1=NNc1ccc(S(N)(=O)=O)cc1[N+](=O)[O-] (centres undefined) do in these assays?
RN4220 kill: 7.0; Mtb hypoxia rep: 0.9; ugtP null kill: 5.7; Mtb hypoxia rep growth: 4.5

What do the screens show for `CC(C(=O)NCc1cccs1)n1cccc1` (centres undefined)?
RN4220 kill: 2.6; PrP UTR inh: 0.1; Mtb hypoxia rep: 10.0; Bead autofluor: 3562; BJeLR viability: -0.5; ugtP null kill: 0.5; Mtb hypoxia rep growth: -1.8

What do the screens show for `CSc1ccccc1C(=O)NCc1cccnc1`?
RN4220 kill: 5.0; PrP UTR inh: -22.5; Mtb hypoxia rep: -4.3; Bead autofluor: 4596; BJeLR viability: -6.2; ugtP null kill: -1.1; Mtb hypoxia rep growth: -4.0

How did Cc1cc(Br)c2c(c1)=C(c1sc(N3CCCCCC3)nc1O)C(=O)N=2 do in these assays?
RN4220 kill: -0.4; PrP UTR inh: -60.6; Mtb hypoxia rep: 2.4; Bead autofluor: 3950; BJeLR viability: -12.9; ugtP null kill: -3.5; Mtb hypoxia rep growth: 1.3

Results for COc1ccc(N2CCN(CCCNC(=O)C(=O)c3c(C)n(C)c4ccccc34)CC2)cc1 ?
RN4220 kill: 1.2; PrP UTR inh: -3.5; Mtb hypoxia rep: 4.7; Bead autofluor: 4674; BJeLR viability: 0.4; ugtP null kill: 6.9; Mtb hypoxia rep growth: -1.1

How did O=C(COC(=O)c1ccccn1)NNC(=O)c1ccc(Br)cc1 do in these assays?
RN4220 kill: 7.1; PrP UTR inh: -3.4; Mtb hypoxia rep: 6.3; Bead autofluor: 5728; ugtP null kill: 8.9; Mtb hypoxia rep growth: 9.5

What do the screens show for `Fc1cccc(CSc2nc3ncccc3[nH]2)c1`?
RN4220 kill: 4.5; PrP UTR inh: -33.2; Mtb hypoxia rep: 5.1; Bead autofluor: 2574; BJeLR viability: 4.4; ugtP null kill: -5.3; Mtb hypoxia rep growth: 1.1
